APJ antagonist = antagonists of human apelin receptor APJ, primary screen, CHO-K1 cells, beta-arrestin complementation, luminescence. P35414. inhibition, % at 20 µM. actives 0.32% (n = 330,000);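 active = inhibition above about 40% at 20 µM, limit read from the data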;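 note: cells challenged with 10 nM apelin-13 agonist together with compound; plate controls were apelin-13 plus DMSO wells for no effect and DMSO wells lacking apelin-13 for full effect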
Target sequence (P35414 whole entry, looked up): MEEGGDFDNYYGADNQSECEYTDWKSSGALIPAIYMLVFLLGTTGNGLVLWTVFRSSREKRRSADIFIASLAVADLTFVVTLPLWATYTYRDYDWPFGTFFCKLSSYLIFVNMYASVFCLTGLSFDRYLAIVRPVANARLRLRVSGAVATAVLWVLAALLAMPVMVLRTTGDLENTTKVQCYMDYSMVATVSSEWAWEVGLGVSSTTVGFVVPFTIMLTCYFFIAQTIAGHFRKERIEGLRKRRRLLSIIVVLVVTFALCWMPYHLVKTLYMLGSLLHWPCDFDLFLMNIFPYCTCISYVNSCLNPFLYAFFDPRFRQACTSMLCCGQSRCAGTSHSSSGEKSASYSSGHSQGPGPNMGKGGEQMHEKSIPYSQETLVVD
TIM10 inh = growth inhibitors of isogenic TIM10 control yeast, primary screen, counter-screen for tim10-1 yeast inhibitor project, luminescence, uHTS; AID 463195, 2010; S. cerevisiae TIM10 strain growth, BacTiter-Glo luminescence, 24 h; actives 1.4% (n = 330,000); inhibition, % at 10 µM;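 active = inhibition of 40% or more at the single tested concentration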;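 note: wild-type TIM10 isogenic control strain grown at permissive 25 °C; 0% = DMSO yeast wells and 100% = minimal medium wells without yeast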
UPR CHOP act = activators of apoptotic CHOP UPR arm, primary screen, cell-based, CHO-CHOP luciferase reporter, luminescence, uHTS. UPR activation; percent of tunicamycin response over DMSO baseline. actives 0.34% (n = 330,000). AID 449763, 2010. activation, % at 10 µM;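 active = at 10 µM dose, activation of 40% or more, normalized to positive control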;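 note: 100% = tunicamycin at 10 µg/mL and 0% = DMSO alone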
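Assay system: CHO cells with stable CHOP pathway luciferase reporter; Buffer or medium: F12 plus 10% serum; Times: 16-18 h cell attachment, then 6 h compound exposure, 37 °C; Signal: luciferase luminescence; Read-out basis: percent activation relative to tunicamycin control; Control set: tunicamycin high control, DMSO low control.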
UPR XBP1 act = activators of adaptive XBP1 UPR arm, primary screen, cell-based, CHO-XBP1 luciferase reporter, luminescence, uHTS; IRE1-XBP1 UPR activation; percent of tunicamycin response, DMSO as zero; activation, % at 20 µM; actives 0.33% (n = 330,000);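 active = versus positive control, 20 µM dose yields 30% or more activation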;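 note: 100% = tunicamycin at 10 µg/mL and 0% = DMSO only wells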
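Material – CHO cell line with stable XBP1 luciferase reporter · Buffer or medium – F12 plus 10% FBS · Compound – single point, 20 µM final compound, 1% DMSO · Schedule – 16-18 h cell attachment at 37 °C, then 6 h compound exposure · Signal – Steady-Glo luminescence read · Benchmarks – high control tunicamycin 10 µg/mL final, low control DMSO vehicle only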
APJ ag = agonists of human apelin receptor APJ, primary screen, CHO-K1 cells, PathHunter beta-arrestin, luminescence. P35414. 0% DMSO wells, 100% apelin. activation, % at 20 µM. actives 0.11% (n = 330,000);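 active = activation more than six SD over the plate average, tested at 20 µM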;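 note: 0% = DMSO alone and 100% = apelin-13 at 10 nM; some results filed as inactive read as strong as hits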
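Test system: CHO-K1 APJ beta-arrestin complementation cell line | Compound: Single test compound dose, 20 µM final, 1% DMSO | Incubation: Compound 90 min 25 °C, reagent 1 h | Measured by: beta-gal luminescence | Read-out basis: APJ–arrestin association signal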
tim10-1 inh = growth inhibitors of tim10-1 mutant yeast, primary screen, luminescence, uHTS | S. cerevisiae tim10-1 ts strain growth, BacTiter-Glo, 24 h | inhibition, % at 20 µM | actives 2.2% (n = 330,000);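 active = inhibition of at least 40%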;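 note: mutant grown at 25 °C; 0% = DMSO wells with yeast and 100% = wells holding no yeast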
Numbers without * were called inactive. This is a subset; the hit share may differ from the screen's.

1. CN1CC[C@]23c4c5ccc(O)c4OC2[C@H](O)C=CC3[C@H]1C5 (some centres not stated)
2. CCOc1ccc(-c2c(C)n(-c3ccc(OCC)cc3)c3[n+]2CCCCC3)cc1
3. COc1ccc(-[n+]2c(-c3ccccc3)cc(-c3ccc(C)cc3)cc2-c2ccccc2)cc1
4. C(=NC12CN3CN(CN(C3)C1)C2)c1cccnc1
5. O=c1c2ccccc2nc(/C=C/c2ccc(F)cc2)n1-c1ccccc1O
6. COc1ccc2c(c1)/C(=C/c1cnc[nH]1)C(=O)N2
7. CN1CCN(Cc2ccc(Br)s2)CC1
8. C[C@H]1CCC/C=C/C2C[C@H](O)CC2[C@H](O)/C=C/C(=O)O1 (some centres not stated)

assay / entry	1	2	3	4	5	6	7	8
APJ ag	-3	4	-3	1	-2	-2	2	-4
TIM10 inh	-3	-13	18	3	24	-45	3	-129
UPR CHOP act	1.4	12	32	0.7	-0.4	-1.5	1.0	107*
tim10-1 inh	-2	8	13	0	35	-3	-4	-50
APJ antagonist	4	11	3	9	-5	14	1	16
UPR XBP1 act	-1	-1	-2	-1	-1	-6	-4	14

Results in APJ antagonist and APJ ag (3 entries from above):
cpd	Compound	APJ antagonist	APJ ag
1	CN1CC[C@]23c4c5ccc(O)c4OC2[C@H](O)C=CC3[C@H]1C5 (some centres not stated)	4	-3
6	COc1ccc2c(c1)/C(=C/c1cnc[nH]1)C(=O)N2	14	-2
3	COc1ccc(-[n+]2c(-c3ccccc3)cc(-c3ccc(C)cc3)cc2-c2ccccc2)cc1	3	-3

Shown as a markdown table: entries from further up
| nr | compound | APJ ag | TIM10 inh | UPR CHOP act | tim10-1 inh | APJ antagonist | UPR XBP1 act |
| --- | --- | --- | --- | --- | --- | --- | --- |
| 3 | COc1ccc(-[n+]2c(-c3ccccc3)cc(-c3ccc(C)cc3)cc2-c2ccccc2)cc1 | -3 | 18 | 32 | 13 | 3 | -2 |
| 4 | C(=NC12CN3CN(CN(C3)C1)C2)c1cccnc1 | 1 | 3 | 0.7 | 0 | 9 | -1 |

Exported with values under each structure: part of the list above
Results follow in this order: APJ ag, TIM10 inh, UPR CHOP act, tim10-1 inh, APJ antagonist, UPR XBP1 act
3) COc1ccc(-[n+]2c(-c3ccccc3)cc(-c3ccc(C)cc3)cc2-c2ccccc2)cc1
→ -3, 18, 32, 13, 3, -2
4) C(=NC12CN3CN(CN(C3)C1)C2)c1cccnc1
→ 1, 3, 0.7, 0, 9, -1

Screens (PubChem)
